GCN5L2 inh = qHTS Assay for Inhibitors of GCN5L2. Potency, µM (series often up to 58.9 µM), inactives show at the highest dose activity change, negative = inhibition, usual class: inhibitors. Histone acetyltransferase KAT2A (Homo sapiens), Q92830. GCN5L2 HAT assay, ThioGlo1 CoA-SH fluorescence. AID 504327, 2011. 390,000 compounds, 0.21% hits; active means well fitted inhibition curve with a large enough effect; inconclusive means small, poorly fitted or top-dose-only effect, or another doubt; inactive means no such curve, though single readings can be large or run the other way
Target sequence (Q92830 whole entry, looked up): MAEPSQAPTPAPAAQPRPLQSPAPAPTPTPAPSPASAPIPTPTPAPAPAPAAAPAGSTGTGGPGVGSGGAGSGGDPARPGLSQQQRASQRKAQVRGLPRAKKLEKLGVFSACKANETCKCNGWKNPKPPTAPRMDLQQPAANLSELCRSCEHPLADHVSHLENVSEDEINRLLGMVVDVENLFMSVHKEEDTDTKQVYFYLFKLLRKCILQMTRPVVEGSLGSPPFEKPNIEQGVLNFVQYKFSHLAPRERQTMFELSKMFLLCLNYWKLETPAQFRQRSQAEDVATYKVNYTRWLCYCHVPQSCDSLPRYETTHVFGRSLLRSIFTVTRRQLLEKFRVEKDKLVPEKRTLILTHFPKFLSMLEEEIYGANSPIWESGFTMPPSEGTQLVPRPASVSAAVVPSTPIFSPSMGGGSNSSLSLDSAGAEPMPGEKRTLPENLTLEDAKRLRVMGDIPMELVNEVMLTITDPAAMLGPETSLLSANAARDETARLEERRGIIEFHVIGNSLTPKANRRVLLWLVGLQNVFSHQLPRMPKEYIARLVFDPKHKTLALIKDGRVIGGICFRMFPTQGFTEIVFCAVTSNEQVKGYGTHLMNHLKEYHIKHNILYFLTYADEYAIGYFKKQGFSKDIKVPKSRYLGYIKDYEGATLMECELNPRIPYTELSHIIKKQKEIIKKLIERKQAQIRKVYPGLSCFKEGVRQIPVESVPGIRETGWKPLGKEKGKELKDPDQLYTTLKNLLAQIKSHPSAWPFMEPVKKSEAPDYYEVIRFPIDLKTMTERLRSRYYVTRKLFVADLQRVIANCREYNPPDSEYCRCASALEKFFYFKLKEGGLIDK
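Titration-based screen in which CoA formation is detected via maleimide probe ThioGlo1 (50uM) turning fluorescent on thiol reaction; substrates H3(1-25) 75uM and acetyl-CoA 70uM, GCN5L2 20nM, 20 min incubation at room temperature.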
An asterisk follows results filed as active; ? = inconclusive; & = joins results of further samples; [ ] = another dose, or the depositor's remark. On the % scale 0 is the no-effect control and ±100 the full control effect; potency means the concentration at half of the fitted maximal effect. Only part of the results is shown; most or all hits stand in other tables.

no.	structure	GCN5L2 inh
1	Cc1nc2ccc(NS(=O)(=O)c3ccc(F)c(C)c3)cc2[nH]1	-13%
2	CC(C)CCNC(=O)COC(=O)c1ccc(Br)o1	-2%
3	Cn1ncc(C#N)c1/N=C/N1CCCC1	0%
4	CCN(C(=O)CSc1nc2ccccc2n1CC(=O)N1CCCC(C)C1)c1ccccc1 (stereo unspecified)	-5%
5	Cc1nc2nc(CSc3nnc(C)s3)cc(=O)n2[nH]1	5%
6	COCCNS(=O)(=O)c1ccc2c(c1)C(=O)c1cc(S(=O)(=O)NCCOC)ccc1-2	-1%
7	CCSc1nnc(NC(=O)CSc2nnc(C)c(=O)n2N)s1	?
8	CCOC(=O)Cc1cnc(NC(=O)CSc2nc(N)cc(N)n2)s1	0%
9	COc1cc(C(=O)Nc2ccc3oc(-c4ccccc4)nc3c2)cc(OC)c1OC	-13%
10	CC(C)(Oc1ccc([C@@H]2CC2(Cl)Cl)cc1)C(=O)O	5%[21.4 µM]
11	CCNc1nnc(-c2ccc(C)cc2)o1	13%
12	Cn1c(SCc2cccnc2)nc2cccnc21	-2%
13	O=[N+]([O-])c1ccc(/C=N/n2cn[nH]c2=S)cc1	-4%
14	FC(F)(F)c1cnc(COc2ccc(Cl)cc2Cl)c(Cl)c1	0%
15	O=C(NC1(C(F)(F)F)NC(=O)N(C2CCCCC2)C1=O)c1cccs1 (stereo unspecified)	-21%
16	Cc1ccc(-c2ccc(=O)n(CC(=O)NCCc3ccc(Cl)cc3)n2)cc1	-5%
17	COC(=O)c1ccc2c(=O)n(Cc3ccc(C(=O)NCCCN4CCOCC4)cc3)c(=S)[nH]c2c1	-2%
18	CN=c1sc2ccccc2n1CC(O)c1ccccc1 (stereo unspecified)	-2%
19	CCC(C)C(=O)Nc1nc2ccc(S(C)(=O)=O)cc2s1 (stereo unspecified)	-1%
20	CS(=O)(=O)NCCNc1ncc(C(F)(F)F)cc1Cl	-5%
21	CCn1c(CN2CCCCC2)nc2cc(NC(=O)COc3ccc([N+](=O)[O-])cc3)ccc21	-2%
22	COc1ccc(C2=C(Nc3ccc(C)c(C)c3)c3ccccc3C2=O)cc1	-7%
23	NC(Cc1ccc(O)cc1)c1cn([C@@H](CCC(=O)O)C(=O)N2CCNCC2)nn1 (stereo partly specified)	5%
24	CN(C(=O)CSc1nncc2ccccc12)C1CCCCC1	-7%
25	O=C(NCc1ccc2c(c1)CCN2C(=O)c1ccncc1)c1cccc(F)c1	-6%
26	CCCc1nc2ccccc2n1CC(O)COc1ccc(NC(C)=O)cc1 (stereo unspecified)	4%
27	Cc1ccc(/C=N/NC(=O)c2ccc3nc[nH]c3c2)s1	-8%
28	CCOC(=O)N1CCN(C(=O)c2c[nH]c3ccc(S(=O)(=O)N(C)c4ccccc4C)cc3c2=O)CC1	-10%
29	N#Cc1c(N)nc2c(c1N)CC(=O)N2c1ccc(Cl)cc1	2%
30	c1ccc(C2(CN3CCNC[C@@H]3CC3CCCCC3)CC2)cc1	-2%

Overlap with the part before: 2 entries; new compounds follow.
no.	structure	GCN5L2 inh
29	N#Cc1c(N)nc2c(c1N)CC(=O)N2c1ccc(Cl)cc1	2%
30	c1ccc(C2(CN3CCNC[C@@H]3CC3CCCCC3)CC2)cc1	-2%
31	CCOC(=O)c1c(NC(=O)COC(=O)Cc2ccccc2[N+](=O)[O-])sc(C(=O)N(C)C)c1C	-1%
32	O=C1c2ccccc2C(Nc2ccc(Cl)cc2)N1CCN1CCOCC1 (stereo unspecified)	-15%
33	CCCCC(=O)NC(c1ccco1)c1c(O)ccc2ccccc12 (stereo unspecified)	-7%
34	COc1ccccc1N(CCOc1ccccc1)S(=O)(=O)c1ccccc1	-3%
35	Cc1ccc(C(=O)OCC(=O)NCc2cccs2)s1	-18%
36	COc1ccc(CNC(=O)c2ccc(Cn3cc(Br)cn3)o2)cc1	-16%
37	O=C(CSc1nnc(Cn2nnc3ccccc32)o1)Nc1cccc(Cl)c1	-14%
38	O=C(Nc1ccc([N+](=O)[O-])cc1)C1CC12CCC2 (stereo unspecified)	-13%
39	CC1CCCCC1NS(=O)(=O)c1ccc(S(=O)(=O)N2CCCC2)cc1 (stereo unspecified)	-5%
40	FC(F)(F)c1cc(-c2ccccc2)nc(NCc2cccnc2)n1	23%
41	C[C@]12CCC3c4ccc(OCC(=O)O)cc4CCC3C1CCC2=O (stereo partly specified)	-17%
42	O=C(Cc1nnc(NC(=O)Nc2ccc(Cl)cc2)s1)NCc1ccccc1	1%
43	Cc1cc(C)c(/C=C/c2onc(C)c2S(=O)(=O)N2CCC(C(=O)Nc3ccc(Cl)cc3C)CC2)c(C)c1	1%
44	Cc1cc(C)n(CCNC(=O)c2ccc3c(c2)OCO3)n1	-3%
45	Cc1cc(Br)ccc1NC(=O)CN(C)C(=O)CN1C(=O)NC2(CCCC2)C1=O	-3%
46	CC/C(=N/NC(=O)CCC(=O)Nc1ccccc1OC)c1ccccc1	-12%
47	CCOc1ccccc1CN1CCNC(=O)C1CC(=O)NCc1cc(C)n(C)n1 (stereo unspecified)	-1%
48	CCOC(=O)c1cc(-c2nnc(-c3ccc(Oc4ccccc4)cc3)o2)c(C)nc1C	-1%
49	CC1CC(=O)Nc2ccccc2N1C(=O)Nc1ccccc1 (stereo unspecified)	-2%
50	Cc1n[nH]c(C)c1S(=O)(=O)N1CCCC(C(=O)N2CCN(c3ccc(Cl)cc3)CC2)C1 (stereo unspecified)	-3%
51	O=C(O)[C@H](O)[C@@H](O)C(=O)O	-4%
52	COc1nc(OC)nc(Oc2ccc([N+](=O)[O-])cc2Cl)n1	-1%
53	CC1(C)C(=O)NCCN1C(=O)CC1C(=O)NCCN1Cc1cccc(C(F)(F)F)c1 (stereo unspecified)	-2%
54	O=C(Cn1cnc2c(cnn2-c2ccccc2)c1=O)NCc1ccccc1	-6%
55	COC(=O)c1ccc(N2CCN(C(=O)c3ccccc3)CC2)c(NC(C)=O)c1	-9%
56	CC(=O)[C@H]1CC[C@H]2[C@@H]3CCC4=CC(=O)CC[C@]4(C)[C@H]3CC[C@]12C	-3%&3%&-9%&-4%&-18%&-2%
57	Cc1cc(NC(=O)CSc2ccccn2)no1	-11%
58	CCC1(C)Cc2ccccc2-c2nc(NCCO)n(-c3ccc(C)cc3)c(=O)c21 (stereo unspecified)	-8%
59	CC1CCN(C(=O)Cn2c(=O)n(-c3ccc(F)cc3)c(=O)c3sccc32)CC1	-3%
60	C/C(C=O)=C/c1ccccc1	2%

Four entries from above, arranged by molecular weight, lowest first:
no.	structure	GCN5L2 inh
52	COc1nc(OC)nc(Oc2ccc([N+](=O)[O-])cc2Cl)n1	-1%
34	COc1ccccc1N(CCOc1ccccc1)S(=O)(=O)c1ccccc1	-3%
37	O=C(CSc1nnc(Cn2nnc3ccccc32)o1)Nc1cccc(Cl)c1	-14%
31	CCOC(=O)c1c(NC(=O)COC(=O)Cc2ccccc2[N+](=O)[O-])sc(C(=O)N(C)C)c1C	-1%

Other entries follow.
no.	structure	GCN5L2 inh
61	O=C(O)CCS(=O)(=O)c1ccc(-c2ccccc2)cc1	-3%
62	COc1ccc(Cl)cc1Nc1nc(-c2sc(NC(=O)CC(C)C)nc2C)cs1	-6%
63	CCCNC(=O)c1ccc(C2SCC(=O)N2CCc2ccccc2)cc1 (stereo unspecified)	-9%
64	Cc1ccc(S(=O)(=O)N(C)CC(=O)O/N=C(\N)c2cccc([N+](=O)[O-])c2)cc1	-1%
65	Cc1c(C2=CCN(S(=O)(=O)c3ccc(CC(C)C)cc3)CC2)c2ccccc2n1CC(=O)N1CCCC1	-7%
66	C#CCN(C)CCCOc1ccc(Cl)cc1Cl	-4%
67	O=C(c1ccco1)N1CCN(c2c(-c3ccccc3)c3cc(Cl)ccc3[nH]c2=O)CC1	-16%
68	COc1cccc(N(CC(=O)NC2CCCCCC2)S(=O)(=O)c2ccccc2)c1	1%
69	NC(=O)c1coc(-c2ccccc2)n1	-2%
70	C/C(=N\NS(C)(=O)=O)c1ccccc1	-2%
71	O=[N+]([O-])c1cccc(S(=O)(=O)N2CCN(S(=O)(=O)N3CCOCC3)CC2)c1	1%
72	Cc1ccccc1Nc1nc(N)nc(CN2CCN(c3ccccn3)CC2)n1	1%
73	Cc1ccc(C(=O)Nc2ccc(N3CCOCC3)cc2)cc1	-13%&-6%
74	Cc1ccccc1C(OCCN(C)C)c1ccccc1 (stereo unspecified)	-17%&-2%&9%&-6%
75	CCCCSc1nnc2c(n1)[nH]c1ccccc12	-5%
76	COc1ccc(S(=O)(=O)CCc2nnc(NC(C)=O)s2)cc1	0%
77	COc1ccc(C(=O)CC(=O)C(=O)Nc2cc(Cl)c(OC)cc2OC)cc1	-2%
78	O=C1CCc2ccc(NC(=O)C3CC3)cc2N1	-9%
79	COc1cccc(NC(=O)CNC(=O)c2ccccc2)c1	2%
80	COC(=O)C(C(=O)Nc1ccccc1C)C1CCCCCC1 (stereo unspecified)	3%
81	CCN(CC)c1ccc(C(=O)OCC(=O)Nc2cc3oc4ccccc4c3cc2OC)cc1	-4%
82	O=C(CCNS(=O)(=O)c1ccc2[nH]c(=O)oc2c1)NCc1ccc(F)cc1	-19%
83	CC(=O)Nc1ccc(NC(=O)c2ccccc2S(=O)(=O)c2ccc([N+](=O)[O-])cc2)cc1	-7%
84	Cn1nc(C(F)(F)F)c(-c2ccc(F)cc2)c1NC(=O)c1cccnc1	-7%
85	Cc1ccc(NC(=O)CCNC(=O)c2ccccc2Cl)nc1	1%
86	COc1ccc(S(=O)(=O)N2CCCCCC2)cc1N	-2%
87	COc1ccc(CN2CCNC(=O)C2CC(=O)NCCSc2nccn2C)cc1OC (stereo unspecified)	-11%
88	CCCOc1ccc(S(=O)(=O)n2cc(Br)c(=O)[nH]c2=O)cc1	-1%
89	Cc1csc(SCC(=O)N(c2ccccc2)C(C)C)n1	2%
90	Cc1ccc(S(=O)(=O)N2CCCCC2)cc1NC(=O)c1cc(F)c(F)c(F)c1F	-1%
91	COc1ccc(C(=O)N(C)Cc2cnn(Cc3ccccc3)c2)cc1S(=O)(=O)N1CCOCC1	-16%
92	Cc1ccc(NC(=S)N2CCCC(O)C2)cc1 (stereo unspecified)	3%
93	Cc1ccc(OCCC(=O)OCC(=O)NNC(=O)c2ccccc2)cc1	-12%
94	CCCCCCCCCCCCCC(=O)O	?
95	CC(C)CCN1CN(S(=O)(=O)c2cccs2)c2nc3ccccc3nc21	0%
96	O=C(Cc1cccc2ccccc12)Nc1ccc2oc(-c3ccccc3)nc2c1	-18%
97	Cc1cc(C(=O)N2CCN(S(=O)(=O)c3ccc(C)c(C)c3)CC2)no1	-6%
98	NC(N)=NS(=O)(=O)c1ccc(NC(=S)NC(=O)c2ccncc2)cc1	-3%
99	CCn1c(C(C)NC(=O)c2cccc(C)c2)nc2ccccc21 (stereo unspecified)	0%
100	O=C(CSc1c(F)c(F)cc(F)c1F)Nc1ccc(C2SCCS2)cc1	?
101	CN(Cc1ccco1)C(=O)c1ccc(N2CCCC2=O)cc1	-5%
102	Fc1ccc(-c2nc3cnccn3c2NC2CCCC2)cc1	-4%
103	Cc1ncsc1CCOC(=O)c1cccc([N+](=O)[O-])c1	0%&-9%
104	CC(C)CN(CC(C)C)C1=N/C(=C\c2ccco2)C(=O)N1c1ccccc1	-10%
105	CCn1c(CNc2ccc(F)cc2)nnc1SCC(=O)Nc1ccc(OC)cc1OC	-2%
106	CCNc1nc(Oc2ccc(=O)n(C)n2)nc(N2CCOCC2)n1	-3%
107	Cc1cc(=O)[nH]c(-c2ccccc2OC(F)(F)F)n1	-2%
108	O=C(CN(C(=O)CCC(=O)Nc1nccs1)c1ccc(F)cc1)NCCc1ccccc1	-1%
109	CC(=O)Nc1ccc(C(=O)CN2C(=O)NC3(CCOc4ccccc43)C2=O)c(F)c1 (stereo unspecified)	-3%
110	CC(C)C(C(=O)Nc1ccc(N2CCOCC2)cc1)N1C(=O)c2ccccc2C1=O (stereo unspecified)	1%
111	CCCC12CN(C(=O)c3ccc([N+](=O)[O-])cc3)CC(C)(CN(C(=O)c3ccc([N+](=O)[O-])cc3)C1)C2=O	0%
112	CCC(Sc1nc2cc(OC)c(OC)cc2c(=O)n1CCc1ccc(Cl)cc1)C(=O)NCCOC (stereo unspecified)	-15%
113	COc1ccc(-n2nc3c(c2NC(=O)C(C)C)CSC3)cc1	-1%
114	CC(C)Nc1nc(SCC(N)=O)nc(N2CCOCC2)n1	-1%
115	CCOc1ccc(-n2ccnc2SCC(=O)Nc2cc(C)on2)cc1	-1%
116	CCC(=O)Nc1c(C(=O)Nc2ccc3c(c2)OCCO3)oc2ccccc12	-10%
117	COc1ccc2c(c1)CC(C(=O)NCCc1ccc(S(N)(=O)=O)cc1)CO2 (stereo unspecified)	-4%
118	CCCCN(CCCNc1ncnc2nc[nH]c12)c1ccccc1	-1%
119	Cc1c(S(=O)(=O)N2CCOCC2)c(=O)n(C)c(=O)n1C	-20%
120	COCCNc1ccnc(-c2ccccc2CN(C)C)n1	2%

Following part
no.	structure	GCN5L2 inh
121	CCCN(CCC)C(=O)CC(c1ccccc1)c1cc(Br)ccc1O (stereo unspecified)	-7%
122	O=C(c1cc(COc2c(F)cccc2F)on1)N(Cc1ccccc1)CC1CC1	-3%
123	O=C(NNC(=S)NC1CC2C=CC1C2)c1cccnc1 (stereo unspecified)	0%
124	COc1cccc(-c2ccnc3c(-c4ccc(F)cc4)c(C)nn23)c1	-6%
125	COc1ccccc1N1CCN(C(=O)Nc2cccc(Cl)c2)CC1	2%
126	COc1ccc(CCNC(=O)c2nn(C)c3c2CSc2ccccc2-3)cc1OC	-14%
